Screening results as filed in PubChem BioAssay.
GLA inh pH 4.5: qHTS Assay for Inhibitors of Human alpha-Galactosidase at pH 4.5; Alpha-galactosidase A (Homo sapiens), P06280; purified enzyme, 4-MU-alpha-Gal fluorescence, pH 4.5; activity change, negative = inhibition, % at 105 µM; 230,000 tested, under 10 active; AID 1467, 2008; inconclusive = small, poorly fitted or top-dose-only inhibition, or a rising curve; inactive = flat fitted curve, though single readings scatter; no compound was filed as active;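 also: 0% = full activity with enzyme and -100% = basal without enzyme; dose as in the result columns while the protocol names 77 µM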
Target sequence (P06280 whole entry, looked up): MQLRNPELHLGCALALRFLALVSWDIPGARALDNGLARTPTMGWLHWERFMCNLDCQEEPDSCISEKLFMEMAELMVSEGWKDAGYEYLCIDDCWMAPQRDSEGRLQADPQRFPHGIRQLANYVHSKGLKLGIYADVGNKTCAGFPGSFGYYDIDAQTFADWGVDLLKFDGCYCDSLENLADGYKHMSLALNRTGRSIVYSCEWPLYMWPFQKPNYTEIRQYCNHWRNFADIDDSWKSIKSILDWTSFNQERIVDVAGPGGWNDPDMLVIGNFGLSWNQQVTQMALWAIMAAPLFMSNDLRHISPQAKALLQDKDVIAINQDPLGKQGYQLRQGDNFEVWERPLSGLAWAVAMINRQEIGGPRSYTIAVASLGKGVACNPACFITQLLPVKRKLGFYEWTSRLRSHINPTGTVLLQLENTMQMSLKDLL
miR-21 FLuc: qHTS Assay for Modulators of miRNAs and/orActivators of miR-21; HeLa miR-21 FLuc reporter, luciferase, 48 h; Potency, µM (doses to about 38.3 µM), for the others: at the top dose reporter change, positive = more light; 340,000 tested, under 10 active; active = well fitted rising curve with a large enough effect; inconclusive = small, poorly fitted or top-dose-only effect; inactive = no such curve, though single readings can be large or run the other way;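 also: % of control where 0% means no effect; miR-21 action dims this reporter so a rising signal means less miR-21 action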
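Using DMEM plus 10% FBS, HeLa miR-21-FLuc cells are incubated with test compounds (final up to about 40uM) for 48 hours; firefly luciferase signal is then imaged following reagent-mediated lysis.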
Rango dissoc inh: qHTS Assay for Inhibitors of RanGTP induced Rango (Ran-regulated importin-beta cargo) - Importin beta complex dissociation | Snurportin-1 (Homo sapiens) + GTP-binding nuclear protein Ran (Homo sapiens) + Importin … | Biochemical FRET Rango-importin beta, RanGTP-induced dissociation | Potency, µM (highest dose often 46.1 µM), inactives show at the top dose activity change, negative = inhibition | 0.071% of 340,000 active | AID 540253, 2011; active means falling FRET ratio curve, often poorly fitted, with flat reads before Ran was added; inconclusive means other falling curves, or compound fluorescence or quenching; inactive means flat or rising ratio curve;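 also: potency is read from the fitted curve at half-maximal effect; % of control where 0% means no effect; nearly all actives have a fitted effect of over 45% in size; -100% = wells without RanGTP and RCC1; the record marks most hits as doubtful in a second field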
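Quantitative HTS using a FRET biosensor: 0.1 uM Rango, 0.25 uM importin beta, 0.6 uM Ran, 2 mM GTP, 0.2 uM RCC1 final, PBS with DTT, Tween-20 and BSA. Post-read taken 45 min after Ran addition.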
Rango-impB inh: qHTS Assay for Inhibitors of Rango (Ran-regulated importin-beta cargo) - Importin beta complex formation; Importin subunit beta-1 (Homo sapiens), Q14974; Rango CFP/YFP FRET sensor + importin beta, 45 min; Potency, µM (highest dose often 92.2 µM), without a hit: top-dose inhibition of complex formation; 0.031% of 340,000 active; AID 540263, 2011; active = rising FRET ratio curve, often small or poorly fitted; inconclusive = mostly compound fluorescence or quenching in the first reads; inactive = flat curves in all reads;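 also: potency is read from the fitted curve at half-maximal effect; 0% = DMSO wells and 100% = buffer wells lacking importin beta; nearly all actives have a fitted effect of over 15% in size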
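Inhibition scored from the CFP 486 nm/YFP 530 nm FRET ratio 45 min after adding 0.125 microM importin beta to 50 nM Rango biosensor preincubated 5 min with compound (room temperature, PBS with DTT, Tween-20, BSA). No-importin wells as positive control.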
* hit, by the source's call; ? = inconclusive; . = no result given; & = joins results of further samples.

Preview:
SMILES	GLA inh pH 4.5	miR-21 FLuc	Rango dissoc inh	Rango-impB inh
O=C(NCc1ccccc1)c1ccc(NC(=O)c2ccco2)cc1	.	-6%	13%	-1.7%
O=C(CSCc1ccc(F)cc1)Nc1ccccc1	-8	-33%	10%	0.5%

This part in full, from the start:
SMILES	GLA inh pH 4.5	miR-21 FLuc	Rango dissoc inh	Rango-impB inh
O=C(NCc1ccccc1)c1ccc(NC(=O)c2ccco2)cc1	.	-6%	13%	-1.7%
O=C(CSCc1ccc(F)cc1)Nc1ccccc1	-8	-33%	10%	0.5%
CC(C)(C)c1ccc(S(=O)(=O)O/N=C2/CCCCC2c2ccc([N+](=O)[O-])cc2[N+](=O)[O-])cc1 (stereo not given)	2	-1%	7%	0.8%
O=C(CSc1nnc(Cc2ccc3c(c2)OCO3)n1C1CCCCC1)NC1CCCC1	-8	-1%	9%	0.3%
NNC(=O)CN1C(c2cccc(Cl)c2)=Nc2ccc(Br)cc2C1c1ccccc1 (stereo not given)	1	-1%	-2%	1.6%
COc1cccc(NC(=O)COC(=O)C2CC2)c1	.	.	-17%	0.5%
Cc1nc(Nc2nc(-c3ccccc3)cc(=O)[nH]2)nc2ccccc12	.	.	13%	3.0%
Cc1ncc(CN2CCCC(C(=O)Nc3ccc(-c4cccc(F)c4)cc3)C2)cn1 (stereo not given)	.	1%	31%	1.8%
Cc1c(C(=O)N2CCCCC2)c(S(=O)(=O)N(C)Cc2ccco2)c(C)n1C	.	-3%	-10%	1.5%
O=C1CC(=Nc2ccccc2)NN1c1ccccc1	3	8%	23%	-3.2%
COc1cccc(NC(=O)CN(C)C(=O)CC2Sc3ccccc3NC2=O)c1 (stereo not given)	.	.	2%	-0.7%
Nc1cc(=O)[nH]c(SCC(=O)N2CCC(Cc3ccccc3)CC2)n1	.	.	-15%	?
COc1ccc(C(=O)COC(=O)CCCn2c(=O)oc3ccccc32)cc1	-5	-3%	7%	-6.0%
COc1ccc(CCNC(=O)C(C)OC(=O)c2cccs2)cc1OC (stereo not given)	.	4%	-4%	5.6%
CCOC(=O)c1c(C)[nH]c(C(=O)OCc2ccccc2F)c1C	.	-57%	-13%	-1.3%

As a short view, part of the list above.
SMILES	GLA inh pH 4.5	miR-21 FLuc	Rango dissoc inh	Rango-impB inh
O=C(NCc1ccccc1)c1ccc(NC(=O)c2ccco2)cc1	.	-6%	13%	-1.7%
O=C(CSCc1ccc(F)cc1)Nc1ccccc1	-8	-33%	10%	0.5%
CC(C)(C)c1ccc(S(=O)(=O)O/N=C2/CCCCC2c2ccc([N+](=O)[O-])cc2[N+](=O)[O-])cc1 (stereo not given)	2	-1%	7%	0.8%

3 entries from above, as labelled records:
O=C(CSCc1ccc(F)cc1)Nc1ccccc1
  GLA inh pH 4.5: -8; miR-21 FLuc: -33%; Rango dissoc inh: 10%; Rango-impB inh: 0.5%
CC(C)(C)c1ccc(S(=O)(=O)O/N=C2/CCCCC2c2ccc([N+](=O)[O-])cc2[N+](=O)[O-])cc1 (stereo not given)
  GLA inh pH 4.5: 2; miR-21 FLuc: -1%; Rango dissoc inh: 7%; Rango-impB inh: 0.8%
O=C(CSc1nnc(Cc2ccc3c(c2)OCO3)n1C1CCCCC1)NC1CCCC1
  GLA inh pH 4.5: -8; miR-21 FLuc: -1%; Rango dissoc inh: 9%; Rango-impB inh: 0.3%

Next part.
SMILES	GLA inh pH 4.5	miR-21 FLuc	Rango dissoc inh	Rango-impB inh
COc1cccc(S(=O)(=O)Nc2cccc(C(=O)N3CCCCCC3)c2)c1	-1	-1%	-7%	0.2%
CCCN(C(=O)Cc1ccc(S(=O)(=O)N2CCOCC2)s1)c1c(N)n(Cc2ccccc2)c(=O)[nH]c1=O	.	.	-14%	?
c1ccc(COc2ccc3nocc3c2)cc1	.	.	-11%	4.7%
COCCNC(=O)C(C)N1c2cccc3cccc(c23)S1(=O)=O (stereo not given)	4	-13%	-10%	?
C[C@H](CO)N1C[C@H](C)[C@@H](CN(C)C(=O)Nc2ccccc2)Oc2ccc(NC(=O)C3CC3)cc2C1=O	.	.	3%	?
Cc1cc(C)c(C)c(S(=O)(=O)N2CCC(C(=O)NNC(=O)c3ccccc3O)CC2)c1C	.	.	15%	-0.1%
CCOC(=O)Cn1c(=O)oc2cc(S(=O)(=O)N3CCc4ccccc43)ccc21	-5	0%	-15%	-2.4%
O=C(c1ccco1)N1CCN(CCOCCOc2cccc3ccccc23)CC1	1	-4%	1%	0.2%
CCN(CC)S(=O)(=O)c1ccc(OC)c(NC(=O)CC2CCCC2)c1	.	1%	-20%	5.8%
C#CCn1c(=NC(=O)c2ccc(S(=O)(=O)N3CCc4ccccc4C3)cc2)sc2cc(S(N)(=O)=O)ccc21	6	-1%	18%	8.4%
Clc1ccccc1Oc1cnc2ccccc2n1	7	-14%	?	-2.7%
Cc1cc(C)nc(NC(=O)c2c(Cl)cccc2Cl)n1	0	0%	14%	1.0%
CCOc1cc(/C=N/NC(=O)C(=O)NCCCOC(C)C)cc(Br)c1O	-3	-3%	-3%	-0.6%
CS(=O)(=O)c1ccc([C@@H](O)[C@@H](CO)NC(=O)C(Cl)Cl)cc1	.	.	1%	-1.3%
C/C(=N\Nc1nc2ccccc2[nH]1)c1ccc(N2CCOCC2)cc1	-22	-3%	1%	-3.4%
O=C1Nc2ccccc2Nc2ccccc21	.	-2%	5%	-0.7%
O=C(c1ccccc1)c1ccc(Cn2cc(-c3ccccc3)nn2)cc1	.	-11%	6%	2.1%
CC(C)Oc1ccc(S(=O)(=O)N2CCOCC2)cc1NC(=O)C1=NN(c2ccccc2)C(=O)CC1	.	.	?	-1.0%
COc1ccccc1CN1CCN(S(=O)(=O)c2ccc(C)cc2)CC1	.	.	7%	-1.8%
CCOC(=O)C1=C(C)N(CCCC(=O)O)C(=O)NC1c1ccc(Cl)cc1 (stereo not given)	.	-1%	1%	?
Cc1ccc(C(=O)N(C)c2ccc(OCC(=O)N3c4ccc(C)cc4C4CN(C)CCC43)cc2)cc1 (stereo not given)	-29	-28%	-6%	1.4%
O=C(O)/C=C/C(=O)Nc1ccc(O)cc1	-1	1%	-10%	?
Cc1ccsc1C(=O)NCCC(c1ccccc1)c1ccccc1	1	0%	0%	1.7%
Cc1ccc(Cn2ncc3c(N4CCOCC4)ncnc32)cc1	-3	-5%	2%	-2.7%
O=C1NC(NS(=O)(=O)c2ccc(Cl)cc2)(C(F)(F)F)C(=O)N1Cc1cccnc1 (stereo not given)	?	1%	-1%	9.6%
C/C(=N\O)c1oc2ccc3c(C)cc(=O)oc3c2c1C	0	6%	7%	-3.2%
Cc1onc(-c2ccccc2Cl)c1C(=O)Nc1c(C)n(C)n(-c2ccccc2)c1=O	-1	0%	15%	-0.6%
CCn1c(SCC(=O)Nc2ccc(S(=O)(=O)Nc3ccccn3)cc2)nnc1-c1ccncc1	1	-2%	4%	2.2%
Cc1cc(N2CCCCC2)nc(N2CCOCC2)n1	12	-3%	-6%	1.8%
CCCn1c(CCC(=O)O)nc2cc(S(N)(=O)=O)ccc21	10	2%	11%	3.0%
COc1ccc(C(=O)NCC(=O)N/N=C/C(C)=C/c2ccccc2)cc1OC	-5	-12%	1%	-0.5%
COc1ccc(C2=CCCC2)c(OC)c1	.	.	2%	-2.0%
Cc1sc(/C=C2\C(=O)ON=C2c2ccccc2)cc1Br	-4	-1%	.	.
Cc1cc(C)n(CC(=O)O)n1	-4	-6%	2%	-0.5%
Cn1cccc1/C=N/NC(=O)Cc1cccs1	8	-23%	14%	0.8%
Nc1nncn1C(=O)c1cc(Br)ccc1Cl	-1	-3%	-8%	0.3%
CC(C)C(=O)Nc1cc2c(cc1C(=O)c1ccccc1)OCCO2	4	1%	28%	-3.5%
COc1ccccc1CNC(=O)CS(=O)(=O)c1ccc(C)cc1	.	0%	0%	0.5%
CC(=O)Cc1nsc(NC(=O)c2ccc(Cl)cc2Cl)n1	5	-25%	3%	?
CNC(=O)NC(=O)COC(=O)c1ccccc1OCc1ccccc1	-10	15%	27%	3.6%
Cc1cccc(N2CCN(C(=O)CCCn3c(=O)c4cccn4c4cccnc43)CC2)c1C	.	15%	-17%	-0.2%
Cc1cc(C)c(S(=O)(=O)c2ccccc2)c(OC(=O)c2ccc(Cl)cc2Cl)n1	-3	-2%	1%	-1.3%
CC(C)CCN(C(=S)NC(=O)C1CCCCC1)c1c(N)n(Cc2ccccc2)c(=O)[nH]c1=O	3	1%	5%	?
Cc1onc(-c2c(Cl)cccc2Cl)c1NC(=O)NN(C)c1ccc([N+](=O)[O-])cn1	-8	2%	-7%	?
COc1ccc(-c2nc(CS(=O)CC(=O)N3CCOCC3)c(C)o2)cc1OC (stereo not given)	.	-1%	-9%	0.1%
O=C(Nc1cccnc1)c1cc(-c2cccc(Cl)c2)on1	.	-4%&-10%	0%	-2.3%
COc1ccc(NC(=O)C(=O)N/N=C(\C)CC(=O)Nc2cc(C)ccn2)c(OC)c1	-2	-5%	-4%	3.6%
Cc1ccccc1CN1CCN(CC2CC2)CC1CCO (stereo not given)	.	1%	-8%	0.3%
Cc1cccc(NC(=O)c2ccc3c(c2)C(=O)N(Cc2cccnc2)C3=O)c1C	.	-4%	5%	8.5%
COc1ccccc1C(=O)NCC(=O)Nc1ccc2c(c1)OCO2	.	.	7%	-0.3%
COc1ccc(NCC(=O)N/N=C2\CCc3ccccc32)cc1	4	-36%	-2%	0.3%
CC1CCCN(S(=O)(=O)c2cccc(C(=O)OCC(=O)N(C)Cc3c(F)cccc3Cl)c2)C1 (stereo not given)	.	.	1%	-3.0%
CCCC(=O)OCC(=O)c1[nH]c(C)c(C(C)=O)c1C	0	-4%	1%	-1.2%
COc1ccccc1C(=O)NCCC(=O)N1CCN(c2ccccc2O)CC1	.	.	17%	-4.0%
COc1ccc(C(=O)N=C2SC3CS(=O)(=O)CC3N2Cc2ccccc2)cc1OC (stereo not given)	.	-7%	13%	0.7%
O=C(CN(C(=O)c1ccc2c(c1)OCCO2)c1ccccc1)NCC1CCCO1 (stereo not given)	-1	-5%	-12%	-1.2%
CCCCOC(=O)Nc1nnc(CC(=O)NCc2ccccc2)s1	.	-3%	5%	1.1%
COc1ccccc1Oc1coc2cc(OCC(N)=O)ccc2c1=O	.	-1%	-1%	-2.9%
CCn1cc(/C=N\NC(=O)c2ccccc2Cl)cn1	10	-10%	-2%	-4.7%
CC(=O)c1c(N2CCN(C(=O)C3CCCO3)CC2)nc(=S)n(-c2ccccc2)c1C (stereo not given)	4	0%	-7%	-1.0%

Additional records follow.
SMILES	GLA inh pH 4.5	miR-21 FLuc	Rango dissoc inh	Rango-impB inh
O=C(CN1CCN(c2ccccn2)CC1)Nc1ccc(OCc2ccccc2)cc1	-18	6%	3%	-0.2%
Cc1cccc(Nc2nc3c(S(=O)(=O)c4ccccc4)nnn3c3ccccc23)c1	-4	-2%	1%	-1.2%
CCc1ccc(/C=N/NC(=O)c2cc(-c3ccncc3)nc3ccccc23)s1	2	25%	-18%	2.9%
COCCn1c(C)cc(C(=O)CSc2nc(C)c(C)c(C)n2)c1C	-5	2%	-6%	-3.4%
O=[N+]([O-])c1cccc(-c2c(-c3ccccc3)ncc3cc(F)ccc23)c1	.	.	3%	1.8%
COc1ccc2oc(C(=O)Nc3ccc(S(=O)(=O)N(C)C4CCN(C)CC4)cc3)c(C)c2c1	.	-9%	4%	0.2%
O=C(NCCc1c[nH]c2ccccc12)c1cnccn1	-13	-32%	-20%	-2.4%
Cc1c(Cl)c([N+](=O)[O-])nn1CC(=O)NCc1ccco1	8	-5%	-12%	0.0%
Cc1nc(CCNC(=O)c2ccccc2)cs1	-10	-21%	0%	0.7%
COc1ccc(-c2ccnc(SCC(=O)N3CCOCC3)n2)cc1	2	-21%	3%	4.0%

A portion of the library, so the mix of outcomes need not match the whole.
